TRAIL sens C8 = caspase-8 TRAIL sensitization | NB7+C8 cells + TRAIL, ATPlite viability luminescence | inhibition (viability loss, TRAIL sensitization), % at 10 µM | 1% of 360,000 active;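 active = compounds causing at least 50% loss of cell viability in the single-dose screen, relative to plate controls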
NOD2 RIPK2 PPI = inhibitors of human NOD2-RIPK2 interaction; inhibition, % at 4.98 µM; CHO BLA complementation NOD2-RIPK2, CCF4 ratio; AID 624267; 0.38% of 360,000 active; in the data active = inhibition above about 21%;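 also: 0% = vehicle only and 100% = reference blocker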
Target sequence (O43353 whole entry, looked up): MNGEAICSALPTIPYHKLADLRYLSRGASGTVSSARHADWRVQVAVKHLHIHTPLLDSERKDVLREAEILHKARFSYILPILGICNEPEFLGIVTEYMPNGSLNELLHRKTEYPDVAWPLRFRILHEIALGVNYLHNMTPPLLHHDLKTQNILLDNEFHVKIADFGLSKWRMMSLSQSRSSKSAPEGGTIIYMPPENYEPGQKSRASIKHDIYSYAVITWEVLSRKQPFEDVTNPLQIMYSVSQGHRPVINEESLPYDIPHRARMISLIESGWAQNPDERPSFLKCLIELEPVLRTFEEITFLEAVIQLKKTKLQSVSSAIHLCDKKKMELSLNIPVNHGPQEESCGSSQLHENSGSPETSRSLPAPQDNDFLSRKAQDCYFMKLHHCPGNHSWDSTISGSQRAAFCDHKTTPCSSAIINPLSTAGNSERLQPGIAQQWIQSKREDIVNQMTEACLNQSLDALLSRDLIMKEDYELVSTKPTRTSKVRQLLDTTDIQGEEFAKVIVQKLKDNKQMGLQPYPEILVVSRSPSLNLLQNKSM
TLR9-MyD88 block = TLR9-MyD88 interaction inhibition; Q9NR96+Q99836; CHO BLA complementation TLR9-MyD88, CCF4 FRET ratio; inhibition, % at 4.98 µM; 0.21% of 340,000 active; AID 504734;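 active = inhibition above the mean over all tested compounds plus 3 SD, cut at about 21% in these data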;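 also: 0% = DMSO only wells and 100% = clavulanate BLA inhibitor control wells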
Vif inh = inhibitors of HIV Vif; HEK293T cells, Vif self-association by quenched fluorescence, imaging, 24 h; 0.35% of 340,000 active; inhibition, % at 7.49 µM; AID 602346; in the data active = inhibition above about 50%, passing the limit was not always enough; inconclusive = no clear call, values can overlap the other calls; inactive = below about 31%; also: some results filed as inactive read as strong as hits
TROY NFkB inh = blocks TROY-dependent signaling in reporter cells; Q293 LMP1-TROYcd NF-kB luciferase reporter, 4 h; inhibition, % at 10 µM; 0.98% of 360,000 active;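 active = compounds whose plate-normalised and pattern-corrected inhibition of the luciferase reporter signal at the single screening dose is 50% or more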
Starred values were filed as active, the others as inactive; ? = inconclusive; & = joins results of further samples. An excerpt (hit frequency here may not be typical).

(1) COc1ccc(CC(C)NCC(O)c2ccc(O)c(NC=O)c2)cc1 (stereo not drawn)
(2) CCc1nc(N)nc(N)c1-c1ccc(NCCN)c([N+](=O)[O-])c1
(3) CC(C)(C(=O)O)c1ccc(C(O)CCCN2CCC(C(O)(c3ccccc3)c3ccccc3)CC2)cc1 (stereo not drawn)
(4) COc1ccc(CC(=O)Nc2nc3ccccc3[nH]2)cc1
(5) CC(C)(C)CC(C)(C)c1ccc(OCCOCC[N+](C)(C)Cc2ccccc2)cc1
(6) CO[C@@]12[C@@H]3N[C@@H]3CN1C1=C(C(=O)C(N)=C(C)C1=O)[C@@H]2COC(N)=O
(7) COc1c(N2C[C@@H]3CCCN[C@@H]3C2)c(F)cc2c(=O)c(C(=O)O)cn(C3CC3)c12
(8) C[C@H](C(=O)O)c1cccc(C(=O)c2ccccc2)c1
screen / no.	1	2	3	4	5	6	7	8
TRAIL sens C8	-7.7&-2.0	79.4*	0.0	-25.2	43.8	21.2	-0.4	-4.4
NOD2 RIPK2 PPI	2.1&-5.0	-4.2	-11.8	5.2	-19.6	7.8	1.0	-20.5
TLR9-MyD88 block	3.4&-8.6	-2.9	-3.2	-2.2	-4.4	1.8	11.4	-1.2
Vif inh	?	1.8	-5.4	-1.7	-2.0	11.2	-13.6	-7.2
TROY NFkB inh	3.0&-13.0	-3.2	-3.7	-14.6	48.4	11.0	9.5	-7.0

(9) CCCC(=O)Nc1ccc(OCC(O)CNC(C)C)c(C(C)=O)c1 (stereo not drawn)
(10) Cc1nn(CC(=O)O)c(C)c1Cl
(11) CC1=C(/C=C/C(C)=C/C=C/C(C)=C/C(=O)O)C(C)(C)CCC1
(12) O=C(O)COCCN1CCN([C@H](c2ccccc2)c2ccc(Cl)cc2)CC1
(13) CO[C@@]12[C@H](COC(N)=O)C3=C(C(=O)C(C)=C(N)C3=O)N1C[C@@H]1N[C@@H]12
(14) CN/C(=C/[N+](=O)[O-])NCCSCc1ccc(CN(C)C)o1
(15) CC1(C)CC(N2CCCC2)=CC(=[N+]2CCCCC2)C1
(16) CN1C2CC(OC(=O)C(CO)c3ccccc3)CC1C1OC12 (stereo not drawn)
screen / no.	9	10	11	12	13	14	15	16
TRAIL sens C8	-3.5	4.1	4.8	-11.7	-7.0	-2.9	31.3	-28.1&-11.5&-11.3
NOD2 RIPK2 PPI	-10.1	-13.5	-4.5	-13.0	-4.2	-14.8	0.4	4.9&-2.3&4.4
TLR9-MyD88 block	-3.1	-6.1	-7.2	-10.1	5.4	7.5	8.8	0.3&2.0&-4.1
Vif inh	11.9	7.3	64.9*	-6.0	?	-1.2	-1.3	-6.4&-3.1
TROY NFkB inh	2.6	8.4	12.0	-2.2	-11.7	15.4	18.4	19.4&-1.4&8.5

(17) Cc1ccc(C)c(OCCCC(C)(C)C(=O)O)c1
(18) CN=C(C[N+](=O)[O-])NCCSCc1ccc(CN(C)C)o1
(19) COc1ccc(-c2csc(Nc3ccccn3)n2)cc1
(20) COC(=O)C1=C(C)NC(C)=C(C(=O)OCCN(C)Cc2ccccc2)C1c1cccc([N+](=O)[O-])c1 (stereo not drawn)
(21) Nc1ccc(OCCc2ccccc2)cc1
(22) CC(C)[N+]1(C)[C@@H]2CC[C@@H]1CC(OC(=O)C(CO)c1ccccc1)C2 (stereo partly drawn)
screen / no.	17	18	19	20	21	22
TRAIL sens C8	6.5	1.1	29.7	13.5	-9.2	-0.1
NOD2 RIPK2 PPI	-8.7	1.5	-7.8	-1.3	5.7	-1.0
TLR9-MyD88 block	6.8	-12.5	-5.0	-9.1	-7.8	-8.8
Vif inh	-2.7	-3.2	-4.7	0.2	-9.4	20.0
TROY NFkB inh	-2.4	-0.2	29.3	4.8	-53.1	-20.7

Structures listed so far with a COOH group, in the order listed:
(3) CC(C)(C(=O)O)c1ccc(C(O)CCCN2CCC(C(O)(c3ccccc3)c3ccccc3)CC2)cc1 (stereo not drawn)
(7) COc1c(N2C[C@@H]3CCCN[C@@H]3C2)c(F)cc2c(=O)c(C(=O)O)cn(C3CC3)c12
(8) C[C@H](C(=O)O)c1cccc(C(=O)c2ccccc2)c1
(10) Cc1nn(CC(=O)O)c(C)c1Cl
(11) CC1=C(/C=C/C(C)=C/C=C/C(C)=C/C(=O)O)C(C)(C)CCC1
(12) O=C(O)COCCN1CCN([C@H](c2ccccc2)c2ccc(Cl)cc2)CC1
(17) Cc1ccc(C)c(OCCCC(C)(C)C(=O)O)c1
screen / no.	3	7	8	10	11	12	17
TRAIL sens C8	0.0	-0.4	-4.4	4.1	4.8	-11.7	6.5
NOD2 RIPK2 PPI	-11.8	1.0	-20.5	-13.5	-4.5	-13.0	-8.7
TLR9-MyD88 block	-3.2	11.4	-1.2	-6.1	-7.2	-10.1	6.8
Vif inh	-5.4	-13.6	-7.2	7.3	64.9*	-6.0	-2.7
TROY NFkB inh	-3.7	9.5	-7.0	8.4	12.0	-2.2	-2.4

Assay outcomes deposited in PubChem by several laboratories.
